# From PubChem BioAssay
# VDR inhibitor – blocks the human vitamin D receptor. P11473. VDR-SRC2-3 peptide fluorescence polarization, 2 h. Potency, µM, for the others: max response, negative = inhibition, usual class: inhibitors. actives 0.93% (n = 400,000). AID 504847; active = well fitted inhibition curve with a large enough effect; inconclusive = small, poorly fitted or top-dose-only effect, or another doubt; inactive = no such curve, though single readings can be large or run the other way; note: series mostly up to about 120 µM
# Target sequence (P11473 whole entry, looked up): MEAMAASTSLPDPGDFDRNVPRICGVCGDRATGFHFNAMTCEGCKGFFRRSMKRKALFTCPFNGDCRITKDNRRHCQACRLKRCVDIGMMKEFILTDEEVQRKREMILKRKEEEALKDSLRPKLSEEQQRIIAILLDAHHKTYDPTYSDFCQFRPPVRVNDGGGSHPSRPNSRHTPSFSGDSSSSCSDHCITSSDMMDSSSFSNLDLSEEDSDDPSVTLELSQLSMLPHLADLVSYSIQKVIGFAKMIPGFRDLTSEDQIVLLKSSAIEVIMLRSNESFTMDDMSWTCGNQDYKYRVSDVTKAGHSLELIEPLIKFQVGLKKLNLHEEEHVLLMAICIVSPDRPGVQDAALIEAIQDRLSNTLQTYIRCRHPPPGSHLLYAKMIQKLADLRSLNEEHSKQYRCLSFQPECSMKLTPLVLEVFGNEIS
#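 FP read-out; VDR + SRC2-3 coactivator peptide; 23 nl compound by pintool; 2 h RT incubation; reagents held at 4 deg C, protected from light.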
# Starred values were filed as active, the others as inactive; ? = inconclusive; & = joins results of further samples; [ ] = remark or other dose. % is set by controls: 0 for no effect and ±100 for the full control effect; potency is the fitted concentration of half-maximal effect. An excerpt (hit frequency here may not be typical).
VDR inhibitor	smiles
-8.7%	O=C(NC1CC1)C1=C[C@H](c2ccc(Br)cc2)C[C@H](OCc2ccc(CO)cc2)O1
?	CC(=O)NC1C(=O)N(CCN2CCOCC2)c2ccc(Cl)cc21 (centres undefined)
?	Brc1cnc2nc[nH]c2c1
12.9%&0.6%	NC(=O)CC[C@H](N)C(=O)O
5.7%	O=c1c2c3c(sc2nc2sc(CN4CCOCC4)cn12)CCCC3
0.9%	COc1ccc(CC(=O)N/N=C/C=C/c2cccc([N+](=O)[O-])c2)cc1OC
14.1%	CCOC(=O)NC(c1ccccc1)C1CCCCC1=O (centres undefined)
-2.7%	Cc1ccc(-c2nc(CNC(=O)Nc3ccccc3)c(C)o2)cc1
1.9%	CCOc1ccc(CCNC(=O)C(CC(C)C)N2Cc3ccccc3C2=O)cc1OCC (centres undefined)
-5.0%	CCOC(=O)C(C)n1cnc2c(nnn2-c2ccc(F)cc2)c1=O (centres undefined)
?	O=C(Cc1ccc(Br)cc1)Nc1ccc(S(=O)(=O)NCC2CCCO2)cc1 (centres undefined)
21.7%	CCN(CC)c1ccc(S(=O)(=O)N2CCOCC2)cc1NS(C)(=O)=O
-7.4%	CCC(Oc1ccc2c(=O)c(-c3ccccc3OC)coc2c1)C(=O)OCc1ccccc1 (centres undefined)
-10.7%	COC(=O)c1sccc1-n1cccc1C(=O)NCc1ccccc1
0.9%	CCc1ccc(Cn2nnc(C(=O)Nc3cccc(C)c3)c2N)cc1

# The list goes on.
VDR inhibitor	smiles
?	CCSc1nc(C(F)(F)F)cc(=O)n1-c1ccccc1
-4.0%	Cc1nc2ccccc2n1CC(=O)NCCN1CCCC1
7.5%	Cc1cccc(NC(=O)CSc2nnc(-c3ccco3)n2CC2CCCO2)n1 (centres undefined)
-2.0%&15.8%	CCCC1=Nc2cc(C(=O)N3CCC(C(=O)OCC)CC3)ccc2Sc2ccccc21
3.3%	O=C(Nc1nc2ccccc2[nH]1)c1ccccc1F
-0.9%	Cc1ccc(-c2csc3nnc(SCC(=O)NCc4ccco4)n23)cc1
14.7%	CCc1nc(C)cn1S(=O)(=O)c1cc(C)c(OC)c(C)c1C
-21.5%	O=C(O)COc1ccc(/C=N/NC(=O)c2ccccc2Br)cc1
8.2%	COc1cccc(C(=O)NC(=S)NCc2ccco2)c1
-3.2%	O=c1c2ccccc2c(-c2ccccc2)nn1-c1ccc(Cl)c(Cl)c1
-13.4%	O=C(Nc1cccc(NC(=O)c2cccs2)c1)c1ccc([N+](=O)[O-])o1
4.6%	COc1ccccc1NS(=O)(=O)c1cc(C(=O)N2CCCC2)ccc1C
-13.5%	CCc1ccccc1N(C)S(=O)(=O)c1cc(-c2cc(C)no2)ccc1OC
-27.9%	Cc1ccc(-c2ccc(=O)n(CCC(=O)N3CCN(c4ccccc4)CC3)n2)cc1
-15.8%	O=C(O)c1cccc(CN2C(=O)SC(Nc3cccc4ccccc34)C2=O)c1 (centres undefined)

# The listing continues:
VDR inhibitor	smiles
21.0%	Cc1ccc(Cl)cc1NC(=O)Cn1cc2c(n1)CCCCC2
-3.6%	COc1ccc(C(=O)COC(=O)CN2C(=O)C3C4C=CC(C4)C3C2=O)cc1 (centres undefined)
-7.7%	Cn1c(=O)c2c(SCC(=O)N3CCCC3)nc(-c3ccccc3)nc2n(C)c1=O
0.8%	CCn1c(SCC(=O)NCc2ccco2)nnc1-c1cccs1
-9.1%	CC(C)C[C@@H](CNCC(=O)[C@H](C)NC(=O)c1[nH]cnc1C(=O)N[C@@H](C)CN)NC(=O)c1nc[nH]c1C(=O)N[C@@H](CO)C(=O)O
-26.2%	COc1ccc(-c2nnc(SCc3ccc(C(=O)O)cc3)n2C)cc1OC
-3.9%	O=C(O)c1cccc(NC(=S)NC(=O)C(c2ccccc2)c2ccccc2)c1
-10.7%	COc1ccccc1N(CC(=O)Nc1cc(C)cc(C)c1)S(C)(=O)=O
1.7%	COc1ccc(-c2nn(-c3ccccc3)cc2C(=O)N2c3ccc(C)cc3C3CN(C)CCC32)cc1 (centres undefined)
-8.4%	O=C(c1c[nH]c2ccccc12)C(Cl)c1ccccc1 (centres undefined)
-7.3%&-3.4%	Cn1c(=O)c2c(SCC(=O)NCc3ccco3)nc(-c3ccccc3Cl)nc2n(C)c1=O
6.8%	CC1=N/C(=C/c2ccco2)C(=O)O1
-12.8%	C=CCN1C(=O)[C@H]2CCC=C[C@H]2[C@@H]1c1cccc(C)c1
-16.2%	Cc1ncsc1C(=O)Nc1cccc(C(F)(F)F)c1
-1.7%	Cc1cc(C)c(NC(=O)CN(C)C(=O)C2CC(=O)N(c3cccc4ccccc34)C2)c(C)c1 (centres undefined)

# Some values from the entries so far:
# VDR inhibitor with COc1ccccc1N(CC(=O)Nc1cc(C)cc(C)c1)S(C)(=O)=O stands at -10.7%
# VDR inhibitor with Cc1ccc(Cl)cc1NC(=O)Cn1cc2c(n1)CCCCC2 stands at 21.0%

# Additional entries follow:
VDR inhibitor	smiles
-1.1%	COc1ccc(OC)c2c(C)cc(N3CCN(C(=O)c4ccc(C)cc4)CC3)nc12
7.5%	O=C(O)Cc1ccc(-n2cccc2)cc1
3.2%	Cc1ccc(-c2nnn(CCC(=O)Nc3ccc4c(c3)OCO4)n2)cc1
14.5%	CCC(C)Sc1ccc([C@@H]2[C@@H]3C(=O)N(C)C(=O)[C@@H]3[C@]3(C(=O)OC)CCCCN23)cc1OC (some centres undefined)
30.2%[activator]	Cc1cc(NC(=O)CN2C(=O)NC(C)(CC(C)C)C2=O)no1 (centres undefined)
-13.1%	COc1ccccc1CNC(=O)c1cccc(NC(=O)c2ccccc2)c1
-7.3%	Cc1ccccc1C(=O)Nc1ccc(Cl)cn1
-5.0%	CN1C(=O)S/C(=C\c2ccc(-n3cncn3)cc2)C1=O
5.0%	CN(CC(=O)NCc1ccccc1Cl)CC(=O)Nc1cccc(F)c1
-1.6%	CC(NC(=O)CNC(=O)Cc1cccc2ccccc12)c1ccc(S(N)(=O)=O)cc1 (centres undefined)
26.4%	Clc1ccc(OCCSc2ncccn2)c2ccccc12
-7.9%	CCN(c1ccccc1)S(=O)(=O)c1ccc(Oc2ccc(C(C)=O)cc2OC)nc1
5.6%	Cc1[nH]c2ccccc2c1C(=O)NS(=O)(=O)Nc1ccccc1
-2.5%	O=C(COC(=O)C1CCN(S(=O)(=O)c2ccccc2)CC1)NC(=O)c1ccc(OC(F)F)cc1
-8.1%	CCOc1c(Cl)cc(C2NC(=O)NC(C)=C2C(=O)NCc2ccccc2)cc1OC (centres undefined)

# More compounds
VDR inhibitor	smiles
-14.7%	CCN(CC(=O)NC1CCS(=O)(=O)C1)C(C)C(=O)Nc1ccc(F)cc1 (centres undefined)
5.3%	COc1ccccc1NC(=O)CSc1oc(-c2ccccc2)nc1S(=O)(=O)c1ccc(C)cc1
11.7%	CN(C)/C=C/C(=O)c1ccc(Oc2ncccn2)cc1
-7.7%	Cc1nc(SC(C)C(=O)NCC2CCCO2)c2cc(-c3ccccc3)sc2n1 (centres undefined)
-2.0%	CCN(CC)CCOC(=O)C12CC3CC(CC(C3)C1)C2
0.5%	N=C1C(c2nc(-c3ccc(Cl)cc3)cs2)=C(O)CN1CCCN1CCOCC1
6.9%	O=C(c1cc(COc2ccc3ncccc3c2)on1)N1CCC(O)CC1
-29.0%	Cn1nc2c3ccccc3n(Cc3ccc(F)cc3)c2nc1=S
-16.9%	CN(C)C(=O)c1ccc(-c2ccc3ncnc(NC4CC4)c3c2)cc1
-14.4%	CCOP(=O)(OCC)c1nc(-c2ccccc2Cl)oc1N1CCOCC1
22.0%	COc1ccc(C(C)=O)cc1CN1C(=O)NC2(CCCCCCC2)C1=O
-11.7%	CCc1nnc(NC(=O)CSc2ccc(-c3nc4ccc(C)cc4[nH]3)cn2)s1
-12.1%	CCN(C(=O)CN1CCOCC1)C1(C)C(=O)c2ccccc2C1=O
-3.8%&-5.7%	Cc1ccsc1C(=CCCN1CCC[C@@H](C(=O)O)C1)c1sccc1C
4.3%	O=C(O)c1cccc(S(=O)(=O)NCCC(c2ccccc2)c2ccccc2)c1

# Part of the list above, bar-delimited:
Structure | VDR inhibitor
O=C(O)c1cccc(S(=O)(=O)NCCC(c2ccccc2)c2ccccc2)c1 | 4.3%
CN(C)/C=C/C(=O)c1ccc(Oc2ncccn2)cc1 | 11.7%
Cc1cccc(NC(=O)CSc2nnc(-c3ccco3)n2CC2CCCO2)n1 (centres undefined) | 7.5%
CCSc1nc(C(F)(F)F)cc(=O)n1-c1ccccc1 | ?
Cc1ncsc1C(=O)Nc1cccc(C(F)(F)F)c1 | -16.2%

# The list goes on.
VDR inhibitor	smiles
5.9%	O=C(C/C=N\O)Nc1ccc(Oc2ccccc2)cc1
-9.0%	Cc1ccc(NC(=O)NC(=O)CSc2nnc(-c3ccc(OC(F)F)cc3)n2N)c(C)c1
-17.3%	NC(=O)COc1ccc(-c2noc(COc3ccccc3[N+](=O)[O-])n2)cc1
4.6%	COc1cc2cc(CNc3ccccc3)c(=O)n(CC(=O)Nc3cccc(Cl)c3C)c2cc1OC
-5.6%	Cc1ccc(NC(=O)[C@@H](NC(=O)c2cccc(S(=O)(=O)N3CCOCC3)c2)C(C)C)cc1C
4.9%	COc1ccc2[nH]c(=O)c(-c3noc(-c4ccc(F)cc4)n3)cc2c1
10µM*	CC(C)c1nnc(NC(=O)c2nc(S(=O)(=O)Cc3ccc(F)cc3)ncc2Cl)s1
4.7%	Cc1ccc(S(=O)(=O)N2C(=O)CCC2C(=O)NCc2ccco2)cc1 (centres undefined)
-8.2%	CSc1c(SCc2ccccc2)cnn(-c2ccccc2)c1=O
4.3%	O=C(CCCc1c[nH]c2ccccc12)N1CCOCC1
1.7%	Cc1ccc(C2OCC3(CO)COC(c4ccc(C)cc4)N23)cc1 (centres undefined)
0.2%	CCOC(=O)Cc1cc(=O)n2[nH]cc(-c3cccc(Br)c3)c2n1
-6.1%	CCc1nn(CC(=O)Nc2ccc(N(CC)CC)cc2C)c(=O)c2cc3sccc3n12
-15.9%	CSc1nc(C)cc(Oc2ccc(OCC(N)=O)nn2)n1
-25.9%	COc1ccc(S(=O)(=O)N2CCC(C(=O)NCC(=O)Nc3c(C)cccc3C)CC2)cc1OC

# Next structures follow:
VDR inhibitor	smiles
-4.3%	COc1ccc(CCNC(=O)c2cnc3sc(N4CCOCC4)nn3c2=O)cc1
-18.7%	COc1c(C)cc(C(=O)C2CCCN(C(=O)c3ccoc3)C2)cc1C (centres undefined)
9.5%	Cc1ccc(NC(=O)CSc2nnc(CN3CCOCC3)n2-c2ccccc2)cc1
-3.4%	CCN(CC)CCC(c1ccc(N(C)C)cc1)c1c(OC)cc(OC)c2c(C)cc(=O)oc12 (centres undefined)
8.5%	CCc1ccc(OCC(=O)NC(C)C)cc1
-4.9%	Cc1ccc(NC(=O)c2c(C)oc3ccc(O)c(CN4CCCCC4)c23)c(C)c1
9.3%	Cc1ccc2c(n1)sc1c(N)ncnc12
-17.9%	COc1ccccc1N1CCN(C(=O)c2ccccc2SCC(=O)NCc2ccco2)CC1
2.9%	Cc1cc(C)n(CC(C)NCc2cn[nH]c2-c2cccc3ccccc23)n1 (centres undefined)
-18.2%	O=C(CN1C(=O)COc2ccccc21)N1CCOCC1
3.6%	Cc1ccc(C2CC2C(=O)NNC(=S)Nc2cccc(Cl)c2)cc1 (centres undefined)
-6.9%	COc1ccc(C2CC(c3ccc(Cl)cc3Cl)Nc3nc(N)nn32)cc1OC (centres undefined)
-8.6%	Cc1ccc(C(C(=O)NC2CCCC2)N(Cc2ccco2)C(=O)CCC(=O)Nc2cc(C)on2)cc1 (centres undefined)
-21.7%	CCOc1ccc(NC(=O)c2cc([N+](=O)[O-])ccc2N2CCOCC2)cc1
15.0%	O=c1cnc2ccccc2n1CC1CCCCC1

# Following part.
VDR inhibitor	smiles
-21.7%	CCOC(=O)c1sc(C)c2c1NC(C)(c1ccccc1)NC2=O (centres undefined)
-6.8%	CCc1noc(C)c1C(=O)NNC(=O)c1ccccc1F
-11.0%	CC(=O)c1c(C)[nH]c(C(=O)OCC(=O)Nc2ccc([N+](=O)[O-])cc2Cl)c1C
13.3%	CCCCCCCCCOC(=O)C(CC(=O)O)N1CCOCC1 (centres undefined)
10.3%	CC(O)(CS(=O)(=O)Cc1ccccc1Cl)C(=O)Nc1cccc(C(F)(F)F)c1 (centres undefined)
-8.3%	S=c1c2[nH]cnc2ncn1CCSc1ncnc2nc[nH]c12
1.8%	NC(=O)c1ccc(NC(=O)COC(=O)c2ccc(Br)c(S(=O)(=O)N3CCOCC3)c2)cc1
10.5%	Cc1ccc(C2CC(c3cccs3)=NN2C(=O)c2ccc(Br)o2)cc1 (centres undefined)
-10.7%	COc1ccc(NC(=O)c2ccccc2SC)c(OC)c1
-12.4%	CCOC(=O)C1C(=O)C=C(c2ccc(C)cc2)CC1c1ccco1 (centres undefined)
-16.7%	COc1ccc(C(CNC(=O)c2ccc(OC)c(S(=O)(=O)N3CCCC3)c2)N2CCCC2)cc1 (centres undefined)
-14.3%	S=C(NCc1ccccc1)N1CCn2cccc2C1c1ccncc1 (centres undefined)
3.6%	Cc1ccc2nc(-c3ccc(SCC(=O)N4CCc5ccccc54)nc3)[nH]c2c1
16.4%	CCn1c(=O)cc(OCC(=O)Nc2ccc(C)cn2)c2ccccc21
-7.0%	CCC(=O)N(CCc1ccccc1)Cc1cc2cc(OC)ccc2[nH]c1=O

# (cont.)
VDR inhibitor	smiles
2.6%	CCNc1c(NC(=O)c2ccccc2OCC)c(=O)oc2ccccc12
-6.3%	C=CCC[C@@H](Cc1ccc(F)cc1)C(=O)OC[C@@H](Cc1c[nH]c2ccccc12)NC(=O)[C@@H](CC=C)CC(=O)NCCO
0.6%	CCN(CC)S(=O)(=O)c1ccc(Oc2cccc(C(C)=O)c2)nc1
?	CC(=O)Oc1cccc(N2C(=O)C3C4C=CC(C4=C(C)C)C3C2=O)c1 (centres undefined)
-5.5%	COc1ccccc1C(=O)NC(CCSC)C(=O)NCC(c1ccco1)N(C)C (centres undefined)
9.0%	CC1CCC(NC(=O)c2ccc(NS(=O)(=O)c3ccc4[nH]c(=O)[nH]c4c3)cc2)CC1 (centres undefined)
